Compound activity as filed in PubChem.
gsp antagonist – antagonists of gsp mutant (McCune-Albright syndrome); gsp-mutant cells, cAMP HTRF, 30 min; control for the full effect not named in the record; Potency, µM (top dose mostly 76.9 µM), without a hit: at the highest dose activity change, negative = inhibition, usual class: inhibitors; 340,000 compounds, 0.4% hits; active = falling curve of any shape with a large fitted effect; inconclusive = falling curve, mostly with a smaller effect; inactive = flat or rising curve; cell line not stated here;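 also: intracellular cAMP measured with PDE inhibitor Ro 20-1724 present during compound exposure; potency is read from the fitted curve at half-maximal effect; % is scaled to controls: 0 for no effect and ±100 for the full control effect; nearly all actives have a fitted effect of over 65% in size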
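Measurement of cellular cAMP by homogeneous time-resolved fluorescence following a 30 min compound exposure at 37C. The PDE inhibitor […] was present throughout; the assay buffer was DPBS with 0.05% BSA and 0.005% Tween 20.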
ClpP mod – qHTS Assay for Activators of ClpP; purified B. subtilis ClpP, FRET peptide cleavage, 20 min; 340,000 compounds, 1.9% hits; Potency, µM (highest dose often 57.5 µM), for inactives: at the highest dose activity change, negative = active; active = well fitted falling curve with a large enough effect; inconclusive = small, poorly fitted or top-dose-only effect; inactive = no such curve, though single readings can be large or run the other way; also: potency is read from the fitted curve at half-maximal effect; the source files actives as falling curves though it sought activators and does not explain the sign; nearly all actives have a fitted effect of over 65% in size; many hits overshoot -100%
Target sequence (P80244 whole entry, looked up): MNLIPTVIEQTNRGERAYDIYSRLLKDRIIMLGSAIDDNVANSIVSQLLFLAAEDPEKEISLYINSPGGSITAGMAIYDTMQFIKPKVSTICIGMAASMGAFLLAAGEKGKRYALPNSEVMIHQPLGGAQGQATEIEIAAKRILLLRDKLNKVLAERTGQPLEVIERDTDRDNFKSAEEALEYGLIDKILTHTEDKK
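Buffer: 100 mM Tris/HCl pH8, 100 mM KCl, 0.05% low protease BSA, 2.5% glycerol, 0.01% Tween-20. ClpP 10 microg/mL final; 20 min RT; delta FRET normalized to ADEP and DMSO controls.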
Menin MLL FP FL – menin-MLL binding inhibition, fluorescein peptide | Fluorescence polarization, fluorescein-MLL peptide displacement from menin | 290,000 tested, under 10 active | FP activity change, % at 61.4 µM; inconclusive = falling polarisation curve, or a change in total fluorescence; inactive = total fluorescence flat and polarisation flat or rising; no compound was filed as active; the % refers to the polarisation; negative = inhibition;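 also: % of control where 0% means no effect; inhibitors lower the polarisation; unlabelled MLL peptide was the positive control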
gsp ag – agonists of gsp mutant (McCune-Albright syndrome) | Potency, µM (doses to about 76.9 µM), inactives show at the highest dose activation (cAMP increase), usual class: activators | 340,000 compounds, 0.13% hits | gsp mutant cells, cAMP HTRF, 30 min; control for the full effect not named in the record; active = well fitted activation curve with a large enough effect; inconclusive = small, poorly fitted or top-dose-only effect, or another doubt; inactive = no such curve, though single readings can be large or run the other way; cell line not stated here;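 also: phosphodiesterase inhibitor Ro 20-1724 added with compounds to block cAMP breakdown; potency is read from the fitted curve at half-maximal effect; nearly all actives have a fitted effect of over 60% in size; about a fifth of the inactives were tested at one dose only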
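Cells in DMEM/10% FBS with G418 were pretreated with compounds in DMSO plus […] (300 uM stock) for 30 min at 37C. cAMP was measured by HTRF (cAMP-d2 plus anti-cAMP antibody-K) after 30 min at room temperature.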
TRPML1 blocker – inhibitors of human TRPML1 channel; 390,000 compounds, 0.02% hits; TRPML1-inducible cells, Ca2+ dye fluorescence, FDSS; hits give low values; inhibition of EC80 agonist-evoked calcium signal; activity change, negative = inhibition, % (test concentration not listed); Q9GZU1; in the data active means activity change below about -50%; inconclusive means about -30% to -50%; inactive means above about -30%;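 also: stimulus is agonist 54-4 at its EC80 concentration; % is scaled to controls: 0 for no effect and ±100 for the full control effect; compound concentration not given in the record; the text of the record puts the active cut at -80%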
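Calcium fluorescence in TRPML1-DL cells induced overnight with Tet: a 110 s read after compound pin addition, then a 110 s antagonist read after challenge with 54-4 at 4 uM final (EC80).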
Sfp inh – blocks B. subtilis Sfp PPTase activity. Potency, µM, inactives show max response, negative = inhibition, hits mostly inhibitors. Biochemical Sfp PPTase activity, qHTS. Q9F4F7. AID 1490. 310,000 compounds, 3.5% hits; active = well fitted inhibition curve with a large enough effect; inconclusive = small, poorly fitted or top-dose-only effect, or another doubt; inactive = no such curve, though single readings can be large or run the other way;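 also: the enzyme is Sfp with the accession as filed and its product quenches rhodamine fluorescence; potency is read from the fitted curve at half-maximal effect; 0% = enzyme reaction without inhibitor and -100% = no enzyme wells; top concentration of the series not given in the record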
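After 15 min at room temperature with compound, 15 nM Sfp received 5 uM rhodamine-CoA plus 12.5 uM BHQ-2-ybbR (50 mM Hepes pH 7.6, 10 mM MgCl2). Rate came from the fluorescence difference over 30 min, ex 525/em 598 nm.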
TRPV1 potentiator – human TRPV1 potentiation. potentiation, % at 8.33 µM. AID 540277. TRPV1-expressing cells, Fluo-8 calcium influx, capsaicin EC20 potentiation; host cell line not named in the record; control for the full effect not named in the record. 320,000 compounds, 0.02% hits. Q8NER1; active means potentiation above 80%; inconclusive means 30% to 80%; inactive means below 30%; also: 0% is about no effect
Target sequence (Q8NER1 whole entry, looked up): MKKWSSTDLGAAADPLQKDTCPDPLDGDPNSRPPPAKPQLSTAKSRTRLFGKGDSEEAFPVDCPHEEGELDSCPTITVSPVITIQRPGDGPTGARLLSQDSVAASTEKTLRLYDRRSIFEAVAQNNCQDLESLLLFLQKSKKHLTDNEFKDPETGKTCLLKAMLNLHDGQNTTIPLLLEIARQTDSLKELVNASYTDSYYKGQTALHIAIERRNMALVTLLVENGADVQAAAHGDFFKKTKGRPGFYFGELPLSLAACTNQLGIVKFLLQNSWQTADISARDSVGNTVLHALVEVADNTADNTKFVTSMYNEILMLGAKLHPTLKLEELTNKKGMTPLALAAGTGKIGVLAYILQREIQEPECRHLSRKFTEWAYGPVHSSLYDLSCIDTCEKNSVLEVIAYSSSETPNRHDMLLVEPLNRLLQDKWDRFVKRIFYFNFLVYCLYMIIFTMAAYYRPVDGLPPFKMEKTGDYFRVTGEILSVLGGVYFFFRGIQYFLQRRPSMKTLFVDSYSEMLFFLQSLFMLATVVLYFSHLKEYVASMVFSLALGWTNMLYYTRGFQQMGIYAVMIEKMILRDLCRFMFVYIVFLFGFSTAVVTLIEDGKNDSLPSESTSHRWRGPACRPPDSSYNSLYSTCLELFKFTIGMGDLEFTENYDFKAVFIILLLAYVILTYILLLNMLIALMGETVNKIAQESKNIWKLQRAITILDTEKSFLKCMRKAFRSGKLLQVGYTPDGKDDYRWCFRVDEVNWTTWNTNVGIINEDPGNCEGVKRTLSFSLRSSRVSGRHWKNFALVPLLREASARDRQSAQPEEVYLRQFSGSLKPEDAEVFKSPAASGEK
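TRPV1-expressing cells were cultured overnight at 35.5C and loaded with Fluo-8 calcium dye for 40 to 90 min at room temperature. After a 10 s baseline, compound was added and calcium influx was read kinetically for 3 min (ex 480/em 520 nm).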
Numbers without * were called inactive; ? = inconclusive; / = no result given; & = joins results of further samples; [ ] = dose if it differs, or a comment.

mol	gsp antagonist	ClpP mod	Menin MLL FP FL	gsp ag	TRPML1 blocker	Sfp inh	TRPV1 potentiator
Cc1ccc(C(=O)COC(=O)CN2C(=O)C3C4CC(C(Br)C4Br)C3C2=O)cc1 (stereo not given)	-1%	/	-3.9	?	-4	-4%	-3
CCNC(=S)NNC(=O)c1cc(-c2cccc(C)c2)nc2ccccc12	?	29%	1.1	0%	7	-10%	-10
COc1ccccc1NC(=O)C(C)N1CCN(C/C=C/c2ccccc2)CC1 (stereo not given)	1%	-0.5%	4.0	-22%	8	?	6
CC(C)(C)S(=O)(=O)c1ccccc1C(=O)O	7%	0.5%	-1.9	-1%	10	12%	12
Cc1ccc(S(=O)(=O)N[C@H](C(=O)N2CCC(C(=O)N3CCC[C@H]3C(=O)O)CC2)C(C)C)cc1	-4%	1.5%	1.9	4%	-13	8%	-10
CCN(CC)CCCN(Cc1cc2cc3c(cc2[nH]c1=O)OCO3)C(=S)NC	4%	/	3.7	-43%[inhibitor]	-2	7%	5
COc1cccc(Oc2nc(-c3ccccc3O)nc3ccccc23)c1	13%	0.5%	1.0	1%	/	-7%	?
CCN(Cc1ccc2c(c1)OCCO2)S(=O)(=O)c1ccc(NC(C)=O)cc1	?	-1.5%	/	-12%	15	/	-14
C[C@H](CO)N1C[C@H](C)[C@@H](CN(C)S(=O)(=O)c2cccs2)Oc2ccc(NS(=O)(=O)c3cn(C)cn3)cc2C1=O	9%	-4.8%	/	-16%	13	/	/
Cc1ccsc1/C=N\NC(=O)c1cc(C(C)(C)C)[nH]n1	5%	?	2.3	-8%[15.4 µM]	-14	-17%	10
O=C(c1ccccc1)c1cc2ccccc2o1	-4%	1.7%	?	?	-16	4%	-12
Cc1nn(C)c(C(=O)N/N=C/c2ccccn2)c1[N+](=O)[O-]	10%	0.4%	/	9%	-22	6%	-1
CCc1nnc(NC(=O)CCC(=O)N2CCN(c3cccc(Cl)c3)CC2)s1	1%	0.4%	-1.0	9%	-3	2%	-9
CCCCCC/C=C/c1ccc([C@H]2[C@H]3C=CC[C@@H](C)[C@@H]3C(=O)N2Cc2ccccc2)c(F)c1	15%	-2.1%	7.4	/	43	-1%	?
N#Cc1ccc(OCC(=O)N2CCN(C(=O)c3ccco3)CC2)cc1	-7%	0.0%	/	18%	4	/	0
COc1ccccc1CN1CC(C(=O)NCc2cccnc2)CC1=O (stereo not given)	6%	0.5%	-3.5	-2%	-3	9%	17
Cc1ccc(C(=O)NCCCN2CCOCC2)cc1Cl	5%	0.8%	-0.8	-6%	/	17%	27
Cc1csc(NC(=O)c2ccccc2)n1	-3%	-0.5%	-3.3	-26%	3	1%	5
COC(=O)C(CC(=O)Nc1cc(C)ccc1C)Nc1ccccc1OC (stereo not given)	19%	1.6%	-1.9	15%	-15	29%	8
COc1ccc(Cn2nnnc2C(c2ccccc2OC)N2CCC(C(N)=O)CC2)cc1 (stereo not given)	-3%	-3.6%	-4.9	-10%	-8	12%	-19

Part of the list above in order of heavy-atom count, low to high:
mol	gsp antagonist	ClpP mod	Menin MLL FP FL	gsp ag	TRPML1 blocker	Sfp inh	TRPV1 potentiator
CC(C)(C)S(=O)(=O)c1ccccc1C(=O)O	7%	0.5%	-1.9	-1%	10	12%	12
Cc1ccsc1/C=N\NC(=O)c1cc(C(C)(C)C)[nH]n1	5%	?	2.3	-8%[15.4 µM]	-14	-17%	10
Cc1ccc(C(=O)COC(=O)CN2C(=O)C3C4CC(C(Br)C4Br)C3C2=O)cc1 (stereo not given)	-1%	/	-3.9	?	-4	-4%	-3
CCCCCC/C=C/c1ccc([C@H]2[C@H]3C=CC[C@@H](C)[C@@H]3C(=O)N2Cc2ccccc2)c(F)c1	15%	-2.1%	7.4	/	43	-1%	?

(more compounds)
mol	gsp antagonist	ClpP mod	Menin MLL FP FL	gsp ag	TRPML1 blocker	Sfp inh	TRPV1 potentiator
Nc1ccccc1SC1CC(=O)N(c2ccc3c(c2)OCCO3)C1=O (stereo not given)	-2%	-3.6%	6.0	3%[15.4 µM]	-12	15%	-2
O=C(Cc1ccc(-n2cccc2)cc1)NC1CCCCC1	-2%	-18%	-2.5	8%	-8	-3%	-18
Cc1ccc(-n2nnnc2CNC(=O)c2ccc(Br)o2)cc1C	6%	0.9%	4.8	-54%[inhibitor]	25	13%	-6
COc1ccccc1OCC(=O)NCc1nc(-c2ccccc2)no1	-3%	/	-0.3	?	29	-13%	15
Cc1cccc(NC(=O)CN2C(=S)NC(C)(C)CC2C)c1C (stereo not given)	6%	-2.2%	-0.2	-7%[15.4 µM]	-2	-23%	27
CSC1=N/C(=C\c2ccc(C)cc2)C(=O)S1	-7%	-0.3%	3.5	-2%	11	-7%	8
CCN(CC(=O)Nc1ccc(N2CCOCC2)cc1)C(=O)c1ccc(C(F)(F)F)cc1	2%	/	-3.0	-5%[15.4 µM]	-27	21%	10
Cn1cccc1-c1cc(C(=O)N/N=C/c2cc(Br)ccc2O)[nH]n1	?	-0.1%	?	30%	-23	-1%	13
Nc1nc(SCn2nnc3ccccc3c2=O)n[nH]1	6%	-2.8%	-4.8	32%	26	-17%	21
NC(=O)[C@@H]1CCCN1Cc1c(C(=O)N2CCN(C3CCCCC3)CC2)nc2ccccn12	0%	18µM*	/	2%[15.4 µM]	3	19%	2
CCC(c1nnnn1Cc1ccco1)N1CCC(C(N)=O)CC1 (stereo not given)	3%	-0.8%	-0.9	-15%	6	7%	-3
COc1cccc(C2c3[nH]c4ccccc4c3CCN2Cc2cccc(C)n2)c1 (stereo not given)	40µM*	-26%	-0.4	38%	90	-2%	-1
Cc1ccc(C)c(S(=O)(=O)N2CCN(C(=O)Cc3ccccc3)CC2)c1	4%	/	/	21%[15.4 µM]	13	/	-3
CN(CC(=O)Nc1cccc(F)c1)C(=O)CNC(=O)Cc1cccc2ccccc12	-15%	-0.9%	/	14%	1	/	11
Cc1snc(SCC(=O)c2ccc(Cl)cc2)c1C#N	-12%	-1.7%	4.2	-9%	-2	28µM*	-10
CC(OC(=O)CCCN1C(=O)c2ccccc2C1=O)C(=O)Nc1ncc(Cl)cc1Cl (stereo not given)	-16%	0.2%	-0.5	16%	-3	0%	-13
Nn1c(SCc2ccc(C(=O)O)cc2)nnc1-c1ccc(Cl)cc1Cl	-5%	1.1%	-6.0	-3%	/	0%	-45
CCOc1cc(CNc2ccc(N3CCN(C(C)=O)CC3)cc2)cc(Br)c1OC	-2%	0.6%	5.2	-5%[15.4 µM]	27	?	6
COc1ccc(NC(=O)Nc2ccc3c(c2)C(=O)N([C@H](C)CO)C[C@H](C)[C@@H](CN(C)S(=O)(=O)c2cccs2)O3)cc1	0%	2.0%	/	/	2	/	/
C/C(O)=C(/C#N)c1nc2ccccc2[nH]1	-3%	-2.0%	2.4	3%	10	10%	-10
CC1CCN(C(=O)CSc2nc3ccccc3s2)CC1	-5%	-2.6%	2.4	-59%[inhibitor]	35	1%	-21
O=C(NN1C(=O)c2ccccc2NC12CCCCC2)c1ccccc1	9%	4.4%	-0.1	?	-19	15%	-12
COc1ccc(NC(=O)CN(C)C2CCCCC2)cc1Cl	10%	-0.9%	0.5	-16%	-3	7%	-6
COc1ccccc1OCC(=O)NNC(=O)CSC(=S)N1CCCC1	3%	0.5%	/	10%	6	/	6
Cc1ccc2[nH]c(C)c(/C=N/Nc3nc4ccccc4s3)c2c1	-5%	-20%	1.0	-76%[inhibitor]	-24	13%	-4
CC1(NC(=O)C23CC4CC(CC(C4)C2)C3)CCS(=O)(=O)C1 (stereo not given)	1%	1.7%	0.4	5%	5	2%	8
Cc1sc2nc(NCCO)[nH]c(=O)c2c1C	10%	-8.0%	0.9	19%	4	-4%	-2
CCOC(=O)c1sc(NC(=O)CSc2nnnn2-c2ccc(C)cc2C)nc1C	12%	-3.6%	2.0	?	-2	8%	2
COc1cc(/C=N/NC(=S)NCC2CCCO2)cc(OC)c1OC (stereo not given)	4%	/	-1.5	14%[15.4 µM]	6	-25%	7
Cc1cc(C)n(CC(O)COc2ccc(Cl)cc2Cl)n1 (stereo not given)	12%	/	-1.2	-5%	-14	21%	2
Cn1c(C2=C(O)CN(c3ccc4c(c3)OCCO4)C2=N)nc2ccccc21	4%	-1.7%	0.9	16%	-15	5%	1
O=C(N/N=C/c1ccncc1)c1cc([N+](=O)[O-])cc([N+](=O)[O-])c1O	-2%	?	2.5	-4%	-13	17%	24
Cc1ccc(NC(=O)NC(=O)CN2C(=O)NC3(CCc4ccccc43)C2=O)c(C)c1 (stereo not given)	2%	0.9%	1.4	-18%	4	1%	?
O=C(COC(=O)c1ccc([N+](=O)[O-])o1)NCCc1ccccc1	-10%	3.6%	/	1%	19	/	/
COc1ccc(CCNc2nc(C)nc3c2nnn3Cc2ccccc2)cc1OC	-9%	4.7%	-4.5	-8%	-9	5%	-5
CN(C)c1cc2c(cc1NS(=O)(=O)c1ccccc1)n(C)c(=O)n2C	-4%	-7.1%	-0.2	-28%	-28&-18	-14%	-6

The order is random; overall some 4.9% were active at least once.
